From PubChem
p53 reactivation = qHTS assay for re-activators of p53 using a Luc reporter; actives 0.063% (n = 320,000); H1299 p53-A138V BP100-luciferase reporter, luminescence, 24 h; Potency, µM (doses to about 92.2 µM), for the others: top-dose activity change, positive = activation, hits mostly activators; further: potency means the concentration at half of the fitted maximal effect; % of control where 0% means no effect; nearly all actives have a fitted effect of over 45% in size
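H1299 (p53-null), stable ts p53-A138V + BP100-Luc; 1000 cells/well, Opti-MEM/10% FBS; cpd 4 pt, 1:5; 24 h, 37 deg C, 5% CO2; detection reagent 10 min RT; luminescence.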
FLuc modulator = qHTS profiling assay for firefly luciferase inhibitor/activator using purifed enzyme and Km concentrations of substrates (counterscreen for miR-21 project) | purified FLuc, Km substrates, luminescence inhibition | AID 588342, 2011 | Luciferin 4-monooxygenase (Photinus pyralis), P08659 | actives 6.9% (n = 360,000) | Potency, µM (titrated, usually from 57.5 µM), without a hit: at the top dose activity change, negative = inhibition, most hits filed as inhibitors;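 further: potency means the concentration at half of the fitted maximal effect; plate controls were vehicle for no effect and reference inhibitor for full effect; nearly all actives have a fitted effect of over 55% in size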
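Biochemical qHTS of compounds, final roughly 60 µM downward over six points, against 10 nM purified firefly luciferase using Km concentrations of substrates (10 uM D-luciferin, 10 uM ATP) in Tris acetate pH 7.5 buffer; luminescence output.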
Menin-MLL TR inh = qHTS Assay for Inhibitors Targeting the Menin-MLL Interaction in MLL Related Leukemias: Competition With Texas Red Labeled MLL-derived Mutant Peptide. Potency, µM (highest dose often 61.6 µM), without a hit: top-dose FP activity change, negative = inhibition, usual class: inhibitors. actives 0.23% (n = 270,000). AID 1768, 2009. Menin + Texas Red MLL mutant peptide, fluorescence polarization. O00255; active means well fitted inhibition curve with a large enough effect in the polarisation, with a control signal flat, not every such curve was filed as active; inconclusive means small, poorly fitted or top-dose-only effect, or effect the other way, or a change in a side signal; inactive means no such curve, though single readings can be large or run the other way; the % refers to the polarisation; further: potency means the concentration at half of the fitted maximal effect; % of control where 0% means no effect; many of its hits are not listed in these tables
Target sequence (O00255 whole entry, looked up): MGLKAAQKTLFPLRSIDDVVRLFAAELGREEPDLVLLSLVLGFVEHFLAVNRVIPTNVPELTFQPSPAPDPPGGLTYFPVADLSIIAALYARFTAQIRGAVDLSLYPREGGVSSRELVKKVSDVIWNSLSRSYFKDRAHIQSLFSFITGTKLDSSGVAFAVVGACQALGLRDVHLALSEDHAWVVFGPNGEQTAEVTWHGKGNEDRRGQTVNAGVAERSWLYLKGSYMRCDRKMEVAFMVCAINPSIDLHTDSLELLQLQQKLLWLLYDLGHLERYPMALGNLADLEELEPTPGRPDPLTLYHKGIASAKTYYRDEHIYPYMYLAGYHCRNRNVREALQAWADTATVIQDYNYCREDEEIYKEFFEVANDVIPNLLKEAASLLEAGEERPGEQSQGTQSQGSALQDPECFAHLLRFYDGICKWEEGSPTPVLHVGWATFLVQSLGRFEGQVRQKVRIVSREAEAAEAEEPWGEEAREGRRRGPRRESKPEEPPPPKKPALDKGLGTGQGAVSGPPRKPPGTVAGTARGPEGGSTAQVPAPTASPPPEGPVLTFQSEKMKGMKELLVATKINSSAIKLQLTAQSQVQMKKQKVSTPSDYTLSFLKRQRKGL
PKM2 activator = qHTS Assay for Activators of Human Muscle isoform 2 Pyruvate Kinase. AID 1631, 2009. Pyruvate kinase PKM (Homo sapiens), P14618. Potency, µM (top dose mostly 57.5 µM), for the others: top-dose activation, hits mostly activators. actives 0.34% (n = 260,000). purified PKM2, Kinase-Glo ATP luminescence, activation; response scale: 0% is enzyme alone, no compound; further: potency means the concentration at half of the fitted maximal effect; on the % scale 0 is the no-effect control and ±100 the full control effect; nearly all actives have a fitted effect of over 55% in size
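Purified hPK-M2 (>95%) run at intermediate activity with 0.1 mM ADP and 0.5 mM PEP in 50 mM imidazole pH 7.2, KCl, MgCl2; 1 h room temperature. ATP formed read by Kinase-Glo luminescence; normalized to uninhibited and no-enzyme controls.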
ELG1 genotoxic = qHTS screen for small molecules that induce genotoxicity in human embryonic kidney (HEK293T) cells expressing luciferase-tagged ELG1. actives 1.3% (n = 330,000). AID 504466, 2011. HEK293T ELG1-luciferase reporter, luminescence, 16 h. Potency, µM (top dose mostly 46 µM), for inactives: at the top dose activity change, positive = activation, usual class: activators; further: potency means the concentration at half of the fitted maximal effect; % of control where 0% means no effect; nearly all actives have a fitted effect of over 60% in size
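Reporter readout depends on ELG1 protein level, which increases with genetic stress. After 16 hr compound exposure at 37 °C, luciferase activity was quantified using ONE-Glo.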
NPC1 promoter act = qHTS Assay for NPC1 Promoter Activators | actives 2.4% (n = 320,000) | Potency, µM (series often up to 9.22 µM), for the others: at the highest dose activation, actives largely listed as activators | Huh7 NPC1 promoter luciferase reporter, 24 h;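 further: potency means the concentration at half of the fitted maximal effect; % of control where 0% means no effect; nearly all actives have a fitted effect of over 60% in size; reporter is driven by a mutant NPC1 promoter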
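Cells: Huh7 expressing luciferase under the NPC1 promoter, 1500/well. Seeded 2 h, compound added, incubated 24 h at 37 °C. Luciferase reagent, 10 min ambient, then luminescence.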
VP16 counter = VP16 counterscreen qHTS for inhibitors of ROR gamma transcriptional activity | Drosophila S2 Gal4-VP16 UAS-luciferase, luminescence, 20 h | Potency, µM (titrated, usually from 53.6 µM), for inactives: at the top dose activity, negative = inhibition, actives largely listed as inhibitors | actives 3.5% (n = 310,000) | AID 2546, 2010;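 further: Gal4-VP16 expression switched on by copper sulfate through the metallothionein promoter; potency means the concentration at half of the fitted maximal effect; on the % scale 0 is the no-effect control and ±100 the full control effect; nearly all actives have a fitted effect of over 50% in size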
BRCA1 expr act = qHTS Assay to Identify Small Molecule Activators of BRCA1 Expression; MCF7-BRCA1-FFLuc reporter, luminescence, 48 h; response scale: scaled: vehicle 0%, 10 µM genistein 100%; Potency, µM (series often up to 46.1 µM), for inactives: at the top dose activation, actives largely listed as activators; actives 1.1% (n = 380,000); further: potency means the concentration at half of the fitted maximal effect; nearly all actives have a fitted effect of over 80% in size; some results filed as inactive show a strong effect at the top dose
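Luminescence from a BRCA1-driven firefly luciferase in MCF7 cells was read after 48 h compound exposure at 37 C. Data normalized against DMSO and a 10microM genistein activation control, then curve-fitted across the titration.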
Giardia killer = Small Molecules that selectively kill Giardia lamblia: qHTS; actives 0.15% (n = 340,000); activity change, % at 7.66 µM, hits read low; AID 540267, 2011; Giardia lamblia trophozoite viability; in the data active means activity change below about -80%; inconclusive means between about -30% and that limit;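 further: parasites exposed to compound for two days anaerobically before the ATP read; on the % scale 0 is the no-effect control and ±100 the full control effect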
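Killing of trophozoites was scored by loss of ATP luminescence after a 48 hrs anaerobic exposure to compounds at 37 deg C, using 100 cells per well.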
Rab9 promoter act = qHTS Assay for Rab9 Promoter Activators. Huh7 Rab9 promoter-luciferase reporter, luminescence, 24 h. Potency, µM (titrated, usually from 9.22 µM), for inactives: at the top dose activation, negative = inhibition, hits mostly activators. AID 485297, 2010. actives 2.8% (n = 320,000); further: potency means the concentration at half of the fitted maximal effect; % of control where 0% means no effect; nearly all actives have a fitted effect of over 60% in size
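Rab9 promoter-driven luciferase in stably transfected Huh7 cells; 1500 cells/well rested 2 h, exposed to compound in DMSO for 24 h at 37 °C, 5% CO2. Luminescence read 10 min after adding luciferase reagent at ambient temperature.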
* hit, by the source's call; ? = inconclusive; nt = no result given; [ ] = another dose, or the depositor's remark. Unless noted, the call rests on the fitted dose curve; in most records, active means well fitted curve in the direction sought with a large enough effect; inconclusive means small, poorly fitted or top-dose-only effect, or another doubt; inactive means no such curve, though single readings can be large; an effect the other way counts as inactive or inconclusive. The list is partial, so the mix of outcomes need not match the whole.

nr | Structure | p53 reactivation | FLuc modulator | Menin-MLL TR inh | PKM2 activator | ELG1 genotoxic | NPC1 promoter act | VP16 counter | BRCA1 expr act | Giardia killer | Rab9 promoter act
1 | O=C(CN1CCCC1)NC(c1ccccc1)c1ccccc1 | nt | 7% | -13% | 5% | -6% | 4% | -12% | -12% | 5 | -2%
2 | CCCC(CCC)c1nc2ccncc2[nH]1 | -1% | -2% | 1% | -3% | -8% | -6% | -7% | 6% | 1 | -10%
3 | O=C(O)C1=CC(O)[C@@H](O)C(O)C1 (stereo partly specified) | nt | nt | -7% | nt | nt | nt | -2% | nt | nt | nt
4 | c1ccc(CC2CCN(Cc3ccccn3)CC2)cc1 | -3% | -12% | -15% | 0% | -2% | 4% | -3% | -7% | 10 | -9%
5 | CCN(c1ccccc1)S(=O)(=O)c1ccc(OC)c(NC(=O)CNCC(C)O)c1 (stereo unspecified) | -5% | -2% | -14% | -2% | 1% | 1% | -5% | -36% | -6 | -1%
6 | COc1ccc(CNCC(O)COc2ccc(C(C)(C)c3ccccc3)cc2)cc1 (stereo unspecified) | -14% | -1% | ? | nt | -5% | -3% | -8% | -102%[inhibitor] | -3 | 1%[1.84 µM]
7 | c1csc(-c2nnc(N3CCCCCC3)c3ccccc23)c1 | ? | 3µM* | -18% | 1% | 1% | 4% | -12% | -25% | 2 | 10%
8 | O=C(CN(C1CCCCC1)C1CCCCC1)N1CCc2ccccc2C1 | 2% | 8% | ? | 2% | -15% | 2% | 0% | -54% | -10 | -2%
9 | O=C(c1ccco1)N1CCN(Cc2ccc(Br)cc2)CC1 | 4% | -1% | -3% | nt | -6% | -1% | 15% | -15% | 2 | -5%[1.84 µM]
10 | CNCCCCOc1ccc(C(C)(C)C)cc1Cl | -6% | -1% | -13% | 2% | ? | -4% | -21% | -34% | -2 | -20%
11 | CC[n+]1c(C)sc2c3ccsc3ccc21 | 9% | -8% | -15% | 10% | -3% | -2% | -20% | -7% | -20 | 3%
12 | CC(=O)Oc1ccc2c(c1)OC(c1ccccc1)CC21CC(C)(C)NC(=O)N1 (stereo unspecified) | -3% | 5% | 3% | 5% | -1% | -1% | 8% | -11% | -21 | -1%
13 | CSc1ccc(CN(C)CC(=O)Nc2c(F)cccc2F)cc1 | -5% | 3% | -13% | 0% | -10% | -6% | -3% | -3% | 5 | -5%
14 | Nc1ccc(N)c(Cl)c1 | nt | nt | nt | nt | nt | nt | -18% | nt | nt | nt
15 | COc1ccccc1CNc1ncc(-c2ccccc2)n1C | 8% | ? | -19% | 1% | 0% | 11% | -14% | 38% | -12 | 10%
16 | C[N+]1(CC(=O)OC2CCCCCCCCCCC2)CCCC1 | -3% | 0% | -9% | -6% | -16% | -7% | -7% | -50% | 19 | -1%
17 | C[n+]1ccccc1/C=C/c1ccc2ncccc2c1 | 8% | -18% | 0% | -3% | 4% | 1% | -5% | -3% | -4 | -2%
18 | Cc1cc(OCCN2CCCCCC2)ccc1[N+](=O)[O-] | ? | 0% | ? | -8% | -1% | -2% | -2% | 35% | 3 | 14%
19 | C=CCc1cc(OC)ccc1OCCOCCN1CCc2ccccc2C1 | 9% | -3% | ? | 8% | -13% | -4% | -19% | 0% | 15 | -2%
20 | CN(C)CC(C)(C)CNC(=O)C1CCN(CCCc2ccccc2)CC1 | 15% | 0% | -14% | 0% | 0% | 3% | -5% | 2% | -19 | 3%
21 | Cc1cccc(C)c1OCCN1CCOCC1 | -45%[inhibitor] | 2% | ? | -2% | 2% | 0% | 6% | 3% | -19 | 1%
22 | Cc1ccc(OCCOCCN2CCN(C)CC2)c(C(C)(C)C)c1 | 19% | 3% | ? | 5% | -10% | 2% | -15% | -4% | 15 | -2%
23 | C[n+]1ccccc1/C=C/c1ccccc1Cl | nt | 1% | -7% | -2% | -1% | -5% | -10% | -10% | -3 | -6%
24 | NS(=O)(=O)c1ccc(CCNC(=O)CNCCc2ccc(C(F)(F)F)cc2)cc1 | -7% | -1% | ? | nt | -5% | -13% | 2% | -9% | -13 | -10%
25 | O=C(c1cccc(F)c1)N1CCC(N2CCOCC2)CC1 | 3% | -1% | -2% | -14% | -3% | 0% | -18% | 17% | 2 | -3%
26 | Cc1ccc(OCCCCNC2CCCC(C)C2C)c(C)c1 (stereo unspecified) | -5% | -1% | ? | 7% | -7% | -4% | -21% | -75% | -21 | -24%
27 | O=C(CNCc1ccc(Cl)cc1)Nc1ccc2c(c1)OCCO2 | 13% | -16% | 1% | -2% | -1% | 17% | 10% | 55% | 9 | 2%

Screen by screen, as entered above:
Compounds 17–25 in VP16 counter read -5%, -2%, -19%, -5%, 6%, -15%, -10%, 2%, -18%
Compounds 17–25 in Rab9 promoter act read -2%, 14%, -2%, 3%, 1%, -2%, -6%, -10%, -3%
Compounds 17–25 in p53 reactivation read 8%, ?, 9%, 15%, -45%[inhibitor], 19%, nt, -7%, 3%

Part of the list above, with two lines to a compound.
The line under a structure holds: p53 reactivation, FLuc modulator, Menin-MLL TR inh, PKM2 activator, ELG1 genotoxic, NPC1 promoter act, VP16 counter, BRCA1 expr act, Giardia killer, Rab9 promoter act
1: O=C(CN1CCCC1)NC(c1ccccc1)c1ccccc1
  nt, 7%, -13%, 5%, -6%, 4%, -12%, -12%, 5, -2%
2: CCCC(CCC)c1nc2ccncc2[nH]1
  -1%, -2%, 1%, -3%, -8%, -6%, -7%, 6%, 1, -10%
3: O=C(O)C1=CC(O)[C@@H](O)C(O)C1 (stereo partly specified)
  nt, nt, -7%, nt, nt, nt, -2%, nt, nt, nt
4: c1ccc(CC2CCN(Cc3ccccn3)CC2)cc1
  -3%, -12%, -15%, 0%, -2%, 4%, -3%, -7%, 10, -9%
5: CCN(c1ccccc1)S(=O)(=O)c1ccc(OC)c(NC(=O)CNCC(C)O)c1 (stereo unspecified)
  -5%, -2%, -14%, -2%, 1%, 1%, -5%, -36%, -6, -1%
6: COc1ccc(CNCC(O)COc2ccc(C(C)(C)c3ccccc3)cc2)cc1 (stereo unspecified)
  -14%, -1%, ?, nt, -5%, -3%, -8%, -102%[inhibitor], -3, 1%[1.84 µM]
7: c1csc(-c2nnc(N3CCCCCC3)c3ccccc23)c1
  ?, 3µM*, -18%, 1%, 1%, 4%, -12%, -25%, 2, 10%
8: O=C(CN(C1CCCCC1)C1CCCCC1)N1CCc2ccccc2C1
  2%, 8%, ?, 2%, -15%, 2%, 0%, -54%, -10, -2%
9: O=C(c1ccco1)N1CCN(Cc2ccc(Br)cc2)CC1
  4%, -1%, -3%, nt, -6%, -1%, 15%, -15%, 2, -5%[1.84 µM]
10: CNCCCCOc1ccc(C(C)(C)C)cc1Cl
  -6%, -1%, -13%, 2%, ?, -4%, -21%, -34%, -2, -20%
11: CC[n+]1c(C)sc2c3ccsc3ccc21
  9%, -8%, -15%, 10%, -3%, -2%, -20%, -7%, -20, 3%
12: CC(=O)Oc1ccc2c(c1)OC(c1ccccc1)CC21CC(C)(C)NC(=O)N1 (stereo unspecified)
  -3%, 5%, 3%, 5%, -1%, -1%, 8%, -11%, -21, -1%
